Bioassay records: PubChem BioAssay, ICCB-Longwood Screening Facility, Harvard Medical School
MgrA-DNA mod: S. aureus MgrA activity modulators, primary screen, biochemical, S. aureus Newman, fluorescence polarization; MgrA-DNA binding; 84,000 tested, 0.13% active; inhibition, %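 (about 10 µg/mL by stock and volumes)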; AID 602314, 2012;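 active = above 50% in either of two replicates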;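 also: 0% = protein plus DNA without compound and 100% = DNA alone without protein; higher means less MgrA bound to DNA so lower polarization; one replicate is shown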
Sa helicase inh: inhibitors of S. aureus replicative helicase, primary screen, biochemical, fluorescence unwinding readout. replicative DNA helicase (DnaC/DnaB), Staphylococcus aureus. purified S. aureus helicase, fluorescence unwinding assay; about half of the hits fall short of the stated cut. inhibition, %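 (tested at about 80 µM)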. 120,000 tested, 0.05% active. AID 485395, 2010;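 active = both duplicates at 50% or more, or one of them with a favoured structure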;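 also: 0% = mean of negative control wells and 100% = mean of positive control wells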
Active calls of the source: *; / = not tested or not shown; & = joins results of further samples. A portion of the library, so the mix of outcomes need not match the whole.

mol | MgrA-DNA mod | Sa helicase inh
O=C(O)CC(c1ccc(O)cc1)N1Cc2ccccc2C1=O (centres undefined) | -2.4 | /
C=CCN1C(=O)C2(c3ccccc31)c1c(oc3ccccc3c1=O)C(=O)N2CCOC (centres undefined) | / | -14
CN1CCN(/C(=C\C#N)c2ccc(F)cc2)CC1 | / | -8
C(=N\N1CCN(c2ccccn2)CC1)/C1=C(N2CCOCC2)C(=C/c2ccccc2)/CC1 | / | -6
O=C(CSC1CCS(=O)(=O)C1)Nc1ccccc1-c1ccccc1 (centres undefined) | -2.0 | -9
CN(CCNC(=O)c1cc2c(s1)-c1ccccc1OC2)C1CCCCC1 | / | 5
O=C(CSc1ncn[nH]1)c1cccs1 | -0.5 | 5
CC(OC(=O)c1ccc(S(=O)(=O)C(F)F)cc1)C(N)=O (centres undefined) | / | 18
O=C1Nc2ccccc2SC1c1ccccc1 (centres undefined) | -2.4 | /
Oc1ccccc1C=Nc1n[nH]c2ccccc12 | 0.2 | /
Cc1ccccc1-n1c(O)c(C2=c3cc(Br)ccc3=NC2=O)sc1=S | -1.9 | /
CN1CCN(c2nc3c(c(=O)n(C)c(=O)n3C)n2Cc2ccc(Cl)c(Cl)c2)CC1 | 3.2 | /
c1ccc(-n2cnnc2SCc2cn3ccccc3n2)cc1 | / | -10
CC(=O)N(c1ccccc1)c1nc(CSc2nncn2-c2ccccc2)cs1 | / | 9
COC(=O)c1ccc(COC(=O)c2c3c(nc4ccccc24)CCCC3)o1 | / | 6
Cc1ccc(-c2cc(C(F)F)n3ncc(C(=O)NCC4CCCO4)c3n2)cc1 (centres undefined) | -0.8 | 1
Cc1noc(C)c1CCC(=O)O | / | -23
CCS(=O)(=O)N1CCN(c2nc(-c3ccccc3)ns2)CC1 | 2.8 | /
O=C(NCC(c1cccs1)N1CCOCC1)c1ccc(Cl)c(S(=O)(=O)N2CCOCC2)c1 (centres undefined) | / | -23
Cc1ccc(C(=O)Nc2nnc(SCC(=O)N3CCCc4ccccc43)s2)cc1 | / | -19
Cc1ccc(-n2c(C)cc(/C=C3\SC(=O)N(C)C3=O)c2C)cc1 | / | -19
CCOC(=O)c1c(C)nn(-c2ncccc2NC(=S)NC(=O)c2ccccc2)c1C | 2.4 | /
CCOC(=O)Cn1nc(C(F)(F)F)cc1C | -1.1 | 9
Cc1ccc(-c2cn3nc(N4CCCC(C(=O)O)C4)sc3n2)cc1 (centres undefined) | -0.8 | 1
Cc1ccc(OCc2nnc(SCC(=O)c3ccccc3)n2-c2ccccc2)c2c1CCC2 | -3.2 | /
NC(=O)C1CCN(C(=O)OCC(F)(F)F)CC1 | / | -11
Cc1oc(-c2ccc(Cl)cc2)nc1CSCC(=O)N1CCc2ccccc21 | / | -7
COc1cc(/C=N/O)ccc1OCc1ccc(Cl)cc1 | / | 12
CC(C)Oc1cccc(C(=O)NCC2CCCO2)c1 (centres undefined) | -0.7 | -10
CSc1nnc2c(n1)OC(c1cccs1)Nc1ccccc1-2 (centres undefined) | 1.7 | /

Other results
mol | MgrA-DNA mod | Sa helicase inh
CCOC(=O)c1c(C)oc2c1c(C=NCCc1c[nH]c3ccccc13)c(O)c1ccccc12 | 1.1 | -2
CC(=O)Nc1cccc2nc(C)sc12 | 0.4 | 4
COC(=O)CNC(=O)c1cc2c(C)nn(-c3ccc(Cl)cc3)c2s1 | / | 6
CS(=O)(=O)c1ccc(NCC(=O)Nc2ccc(F)c(Cl)c2)cc1 | / | 6
O=C(CSc1ccccn1)Nc1ccc(-c2ccc(NC(=O)CSc3ccccn3)cc2)cc1 | / | 2
N#Cc1cnc(Sc2nnc(-c3ccc(Cl)cc3)n2Cc2ccccc2)nc1N | / | 6
O=C(O)C1CCN(C(=O)c2ccc3nsnc3c2)CC1 | -1.3 | /
O=C(O)c1cccc(NC(=O)c2cn(-c3ccccc3)nc2-c2cc3ccccc3o2)c1 | / | -3
O=C(O)CC(C(=O)Nc1cc(C(F)(F)F)cc(C(F)(F)F)c1)C1=CCCCC1 (centres undefined) | -1.1 | /
O=C(O)CCNc1ccc(Cl)cc1 | -1.1 | /
COc1ccc(N=Cc2cc(C=Nc3ccc(OC)cc3)c(S(=O)(=O)C(C)(C)C)s2)cc1 | 1.9 | 4
O=C(OCc1ccccc1)N1CN(Cc2ccccc2)Cc2c1oc1ccccc1c2=O | -3.6 | 11
CCc1ccc(NC(=O)C2COc3ccccc3O2)cc1 (centres undefined) | 1.3 | /
COc1ccc(CCN2C(=O)c3ccccc3C(C(=O)O)C2c2ccccc2O)cc1OC (centres undefined) | / | 9
OCCOc1ccc(Br)cc1OCCO | -1.4 | 15
O=C(NNC(=S)Nc1ccccc1)c1cccnc1 | 5.9 | /
CC(=O)O/N=C1/SC(=Nc2ccc(Cl)cc2)C2=C1N(C)CC2 | / | -8
Cc1cc(C)cc(NC(=O)C2COc3ccccc3O2)c1 (centres undefined) | 1.9 | /
O=C(OCCCN1C(=O)c2cccc3c(N4CCOCC4)ccc(c23)C1=O)c1cc([N+](=O)[O-])cc([N+](=O)[O-])c1 | 1.5 | /
COc1ccc(-c2nnc(N(C)C(=O)C3CCOC3)s2)cc1 (centres undefined) | 0.6 | 2
O=S(=O)(NCc1ccccc1)c1cc(Cl)ccc1Cl | / | -27
Cc1nc(NNC(=O)c2ccccc2)cc(-c2ccccc2)n1 | 4.4 | 12
O=C(CSc1nnc(Cc2ccccc2)n1Cc1ccccc1)NCc1ccco1 | -0.8 | 3
O=C(Nc1cccnc1)c1ccc(COCC(F)(F)F)cc1 | 0.0 | 4
N#CC1(NC(=O)COC(=O)CSc2ccc(F)cc2)CCCCC1 | / | 6
CCN1/C(=C\C=C2/C(=O)NC(=O)N(C)C2=O)Sc2ccccc21 | / | -61
O=C(OCC(=O)N1CCCC1)c1ccc(Cl)c(Cl)c1 | -2.1 | 4
Cc1ccc(C)c(S(=O)(=O)NCc2ccc(C(=O)N3CCN(C)CC3)cc2)c1 | -3.5 | -2
Cc1ccc2c(c1)c(C)c(C)n2CC(O)Cn1nc(C)cc1C (centres undefined) | / | 14
NNc1nc2ccccc2s1 | -1.9 | 5

Next compounds:
mol | MgrA-DNA mod | Sa helicase inh
CC1(C)S[C@@H]2[C@H](NC(=O)[C@H](N)c3ccccc3)C(=O)N2[C@H]1C(=O)O | 1.2&0.3 | /
COc1cc(OC)cc(-c2nc3ccccc3c(=O)n2NC(=O)c2ccc(OC)c(Br)c2)c1 | -1.4 | /
COC(=O)c1sc(=S)n(-c2ccc(C)cc2)c1N | / | 15
COc1cccc(-n2cc(C(=O)Nc3cccnc3)c3ccccc3c2=O)c1 | -1.3 | -5
O=c1[nH]sc2ccccc12 | / | 22
CC(=O)Nc1ccc(S(=O)(=O)n2cnc3ccccc32)cc1 | -2.5 | 4
Cc1noc2ncnc(NC(C)(C)CCO)c12 | / | -21
O=C(CNC(=O)c1ccc2ccccc2c1)OCn1nnc2ccccc2c1=O | / | -13
N#CCn1c2ccc(Cl)cc2c2nc3ccccc3nc21 | 5.7 | 7
O=C(CSc1nc2ccccc2c2nc3ccccc3n12)c1ccccc1 | 0.2 | 3
O=C(O)CSC1(SCC(=O)O)CCCCCC1 | -1.4 | /
CC1=CC(C)C(/C=N/n2cnnc2)C(C)C1 (centres undefined) | / | 1
COC(=O)c1ccc(C)c(N(CCO)CCO)c1 | -0.7 | -2
COc1nc(Nc2ccc(F)cc2)nc(OC)n1 | -0.8 | /
Cc1nnc(NC(=O)CSc2c[nH]c3ccccc23)s1 | / | 16
O=C(c1cc(=O)[nH]c2ccccc12)N1CCc2ccccc2C1 | / | -7
CCc1c(C)n([O-])c2c([n+]1=O)CCCC2 | 1.4 | 18
C#CCn1c(=NC(=O)CSCC(=O)Nc2cc(C)on2)sc2ccccc21 | / | 8
CCOC(=O)/C=C1\NC(C)(C)Cc2cc(OC)c(OC)cc21 | -0.2 | 4
Cc1cc2nc(C)n(CC(=O)N(C)c3ccccc3)c2cc1C | / | -5
NC(=O)CCN(C1CCCCC1)S(=O)(=O)c1cccc2nsnc12 | -1.8 | 19
Cc1nnc(SCC(=O)N(c2ccccc2)c2ccccc2)nc1C | -0.7 | 2
COc1ccc(S(=O)(=O)CCC(=O)Nc2ccc(OC(F)(F)F)cc2)cc1 | -8.2 | 4
COc1cccc(NC(=O)c2nn(C)c3c2COc2ccccc2-3)c1 | / | -14
O=S(=O)(/C=C/c1ccccc1)c1ccc(F)c(Cl)c1 | -2.1 | /
CC(C)c1cc(NCc2ccccn2)n2c(nc3ccccc32)c1C#N | 1.6 | -6
CC(C)CNP(=O)(OC1CC(C)CCC1C(C)C)c1ccccc1 (centres undefined) | 1.3 | 0
OCCN1CCN(CCN2CCn3c2nc2ccccc23)CC1 | / | -6
CCSC1=C(C#N)C2(CCCCC2)C(C#N)=C(N)N1 | 1.8 | 10
CCc1nc(NCCN2CCOCC2)c(C#N)c2c1COC(C)(C)C2 | / | 26

An excerpt from above in order of length of the SMILES, rising.
mol | MgrA-DNA mod | Sa helicase inh
CCc1c(C)n([O-])c2c([n+]1=O)CCCC2 | 1.4 | 18
O=S(=O)(/C=C/c1ccccc1)c1ccc(F)c(Cl)c1 | -2.1 | /
CCc1nc(NCCN2CCOCC2)c(C#N)c2c1COC(C)(C)C2 | / | 26
CC1(C)S[C@@H]2[C@H](NC(=O)[C@H](N)c3ccccc3)C(=O)N2[C@H]1C(=O)O | 1.2&0.3 | /

Fetched one by one from above, 2 records:
mol | MgrA-DNA mod | Sa helicase inh
O=C(NNC(=S)Nc1ccccc1)c1cccnc1 | 5.9 | /
COc1cc(/C=N/O)ccc1OCc1ccc(Cl)cc1 | / | 12

(more compounds)
mol | MgrA-DNA mod | Sa helicase inh
CC(=O)OC1=CSc2ccc(Br)c3cccc1c23 | -1.8 | 3
COc1ccc(-c2cc(C(=O)N3CCCC3C(=O)O)c(C)o2)cc1OC (centres undefined) | 2.8 | 6
FC(F)(F)c1cccc(/C=N/n2cnnc2SCc2ccccc2)c1 | 0.6 | -2
CN1CCN(C(=O)CCC(=O)c2ccc(F)cc2)CC1 | / | -11
COc1cc(C(=O)N2CCN(C(=O)C(Cc3cc(C)ccc3C)NC(C)=O)CC2)cc(OC)c1OC (centres undefined) | -2.0 | 18
CCC(=O)NC1CC(C(C)(C)NC(=O)CC)CC=C1C (centres undefined) | -0.2 | -16
Cc1ccccc1OCC(=O)N(C)Cc1c(C)nn(C2CCS(=O)(=O)C2)c1C (centres undefined) | / | -3
Cc1noc2nc(C(=O)NCCC3=CCCCC3)nc(N3CCOCC3)c12 | / | -15
O=S1(=O)CCC(N2C(=S)SC3CS(=O)(=O)CC32)C1 (centres undefined) | 2.2 | -9
Cc1c(NC(C)C(=O)Nc2ccc(S(=O)(=O)N3CCOCC3)cc2)c(=O)n(-c2ccccc2)n1C (centres undefined) | / | -10
CNS(=O)(=O)c1cc(C(C)(C)C)cc(C)c1C | 0.9 | -7
CC1(C)Cc2cccc(Oc3ncnc4sccc34)c2O1 | / | -16
COc1ccccc1NC(=S)NCc1cccn1C | / | 9
O=C(NCC(F)(F)F)OCc1ccc(F)cc1 | -0.9 | 12
CCCc1nc2c(sc3nc(COC)cc(C)c32)c2nc3ccccc3n12 | -1.4 | 9
O=C(NCc1n[nH]c(=O)c2ccccc12)C1CC1 | / | 3
CCSc1n[nH]c(C(F)(F)F)n1 | / | 3
COc1cccc2cc(C(=O)CBr)c(=O)oc12 | 5.0 | -11
COc1ccc(-c2nc3cc(F)c(Cl)cc3nc2-c2ccc(OC)cc2)cc1 | 0.8 | -4
COC(=O)c1ccccc1Oc1ccc(NC(=O)c2ccccc2)cc1 | -1.1 | /
CC1(C)Cc2c(c(=O)n(-c3ccccc3)c3ncnc(N)c23)CO1 | -1.3 | 9
COC(=O)CC/C(O)=C1\C(=N)CC(C)(C)CC1=O | / | 6
COc1ccc(S(=O)(=O)N2Cc3ccccc3CC2C(=O)Nc2nccs2)cc1OC (centres undefined) | -0.1 | 8
COc1ccccc1N1C(=O)C=CC1=O | 6.9 | -18
O=C(O)CS(=O)(=O)c1ccccc1 | / | -15
CC1(C)OC(=O)C(=CNc2ccc(F)c(Cl)c2)C(=O)O1 | 0.8 | /
O=C(NCCSc1nnnn1-c1ccccc1)c1ccco1 | 1.5 | 9
Cc1oc(-c2cccc(Cl)c2)nc1CN1CCC(C(=O)NCc2ccc(Cl)cc2)CC1 | -1.4 | 4
CSc1ccccc1NC(=O)CN(C)C(=O)Cn1c(=O)oc2ccccc21 | / | 4
O=C(CCN=C1NS(=O)(=O)c2ccccc21)Nc1cccnc1 | / | -12

More records follow:
mol | MgrA-DNA mod | Sa helicase inh
CC(C)OC(=O)c1cc(NC(=O)C2C3CCC(O3)C2C(=O)O)cc(C(=O)OC(C)C)c1 (centres undefined) | / | 8
O=c1[nH]c(CSC2CCCCC2)nc2ccccc12 | / | 4
CC(C)C(NS(=O)(=O)c1ccc2c(c1)OCCCO2)C(=O)O (centres undefined) | / | -1
Cc1ccc(NS(=O)(=O)c2cn(C)cn2)cc1 | 2.5 | 3
CCOc1ccc2nc(S/C=C/C(=O)c3ccc(Cl)cc3)sc2c1 | -0.8 | /
CC(=O)Nc1ccc(C(=O)CSc2nc3ccccc3n2C)cc1 | -0.8 | 9
Cn1nnnc1SCC(=O)N1c2ccccc2Sc2ccccc21 | / | 17
NNC(=O)[C@H]1C[C@@H]1C(=O)NN | 0.2 | /
Cc1ccc(C)c(C(=O)OC2CCCCC2=O)c1 (centres undefined) | / | 15
COc1cccc(CNC(=O)c2cccs2)c1 | / | 11
CN(C)c1ccc(C2CC(=O)C=C(NCc3cccs3)C2)cc1 (centres undefined) | -3.0 | /
COc1cc2c3nc4n(c(=O)c3n(CC(=O)NC3CCCC3)c2cc1OC)CCS4 | -2.5 | 8
